# RmlC RmlD mix: inhibitors of RmlC and RmlD coupled enzymes; RmlC/RmlD coupled enzyme inhibition, 384-well mixture HTS; inhibition, % at 5.5 µM; actives 0.39% (n = 110,000); AID 1532; in the data active means inhibition above about 30%, passing the limit was not always enough; only retested compounds are shown here; further: strong numbers were not always called active
# RmlC RmlD mix retest: second read-out of RmlC RmlD mix, no call of its own (marks repeat the call); inhibition, %; measured here: mean retest inhibition;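 single compounds in two wells; values far above 100% likely come from compound fluorescence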
# Starred values were filed as active, the others as inactive; i = inactive; nt = not tested or not shown; + = active, no number.
SMILES,RmlC RmlD mix,RmlC RmlD mix retest
CC(=O)c1cccc(NC(=O)c2cc(-c3ccc(F)cc3)on2)c1,30.6,-1.3
Cc1cc(NS(=O)(=O)c2ccc(NC(=O)c3oc4ccccc4c3C)cc2)no1,48.0,-9.9
CCc1ccc2[nH]c(=O)c(CN(Cc3ccccc3OC)C(=O)Nc3ccccc3OC)cc2c1,30.3,1.7
O=C(Nc1nncs1)c1cccc(S(=O)(=O)N2CCCCC2)c1,72.2,-2.3
N[C@@H](Cc1cc(I)c(Oc2cc(I)c(O)c(I)c2)c(I)c1)C(=O)O,46.0,1.0
O=C(NC1CCCC1)C1CCN(S(=O)(=O)c2cccc3cccnc23)CC1,42.8,-5.8
O=C(NC1=NCCS1)c1ccc(Br)s1,61.4,-4.2
C=CCOC(=O)C1=C(C)NC(SC)=C(C#N)C1c1cccs1 (stereo not given),102.8,2.8
CCc1ccc(C2=CC(c3cc(Br)ccc3F)n3ncnc3N2)cc1 (stereo not given),38.0,2.0
CC(=O)Oc1cc(C(C)C)c(OCCN(C)C)cc1C,44.3,2.9
COc1ccc(CN2CCN(C(=O)c3ccco3)CC2)cc1,37.0,-1.0
COc1ccccc1C(=O)Nc1ccc2oc(-c3ccc(F)cc3)nc2c1,47.3,30.1
COCCn1nnnc1C(c1cccs1)N1CCN(c2cc(C)ccc2C)CC1 (stereo not given),135.2,2.2
COC(=O)c1cccc2nc3c(C(C)O)cccc3nc12 (stereo not given),73.5,0.8
CCOc1cc2[nH]c(=S)n(Cc3ccc(C)o3)c(=O)c2cc1OCC,103.8,-3.9
COc1ccc(S(=O)(=O)CCC(=O)NCCc2ccc(Cl)cc2)cc1,115.2,1.9
CN(C)S(=O)(=O)N1CCN(S(=O)(=O)c2ccc3ccccc3c2)CC1,95.7,5.2
O=C(NCc1ccco1)c1scc2c1OCCO2,31.9,-7.0
CC(C)n1c(Sc2nccn2C)nc2c1c(=O)n(C)c(=O)n2C,101.8,-10.6
O=c1[nH]cnc2ccccc12,37.5,7.2
CCC(C)NC(=O)NC(=O)N(C1CCCCC1)S(C)(=O)=O (stereo not given),82.4,1.2
C=CCNCC(=O)NN=C(c1ccccc1)c1ccccc1,110.2,-13.4
C#CCSc1nnc(-c2c[nH]c3ccccc23)n1C,99.0,4.7
CSc1nc(-c2ccccc2)nn1C(=O)c1ccc(C)cc1,43.2,-9.3
C=COCCNC(=O)C1CC(=O)N(c2ccc(C)cc2)C1 (stereo not given),i,-13.7

# Remaining list, next part:
SMILES,RmlC RmlD mix,RmlC RmlD mix retest
O=C(CN1CCCCC1)N1c2ccccc2Sc2ccc(C(F)(F)F)cc21,48.3,-8.3
O=C(NCCNC(=O)C(F)(F)F)c1ccncc1,32.0,2.3
CN(C)CCNC(=O)c1cc2c(s1)-c1ccccc1OC2,160.6*,134.6*
COc1cccc(NC(=O)c2nnn(Cc3ccc(Br)cc3F)c2N)c1,46.5,-5.5
CCOC(=O)c1c(NC(C)=O)sc2c1CCC(C=NCCCN(CC)CC)=C2Sc1ccccc1,65.2,-14.4
COc1ccc(C2=NOC(C(=O)NCc3cccs3)C2)cc1 (stereo not given),71.1,-2.0
CC(C)(C)C(=O)[C@H]1[C@H](c2ccccc2)[C@@]2(N=C(c3ccccc3)OC2=O)C2c3ccccc3C=NN21 (stereo not given in full),54.3,-8.2
O=C(CSc1ccccc1)Nc1ccncc1,43.1,-2.8
COc1ccc2c(c1)nc(SCC(=O)c1cccs1)n2C,48.4,-11.8
Cc1cccc(-c2oc3ccc(-c4ccc5c(c4)OCO5)cc3c2-c2ccc(OC3CCCCO3)cc2)c1 (stereo not given),150.5,58.5
CC(NC(=O)CCSc1nc(-c2ccc3c(c2)OCO3)cc(C(F)(F)F)n1)c1ccccc1 (stereo not given),50.4,-35.0
COc1nc(N/N=C/c2ccccc2F)nc(N2CCCCC2)n1,95.7,-14.5
O=S(=O)(NCc1ccccc1)c1cccc(S(=O)(=O)N2CCOCC2)c1,48.2,-13.8
CC(NC(=O)C1CC=CCC1C(=O)O)C1CC2CCC1C2 (stereo not given),106.6,-8.7
Cc1ccc(SCCN2C(=O)NC(C)(C)C2=O)cc1,i,4.7
O=C1CC(N2CCN(c3ccc(C(=O)c4ccc(F)cc4)cc3)CC2)C(=O)N1 (stereo not given),33.5,7.6
COc1ccc(S(=O)(=O)N2CCC(O)(c3ccc4c(c3)OCO4)CC2)cc1,i,-10.8
CCCC(=O)Nc1ccc2c(c1)nc(CN1CCCCC1)n2C,i,9.3
CCc1c(C)[nH]c2nc3ccccc3n2c1=O,124.6,-19.7
c1ccc(-c2csc3nnc(SCc4ccc5c(c4)OCO5)n23)cc1,46.5,2.6
Oc1ccc(Nc2nc3ccccc3nc2Nc2ccc(O)cc2)cc1,93.2,-5.9
CCC(CO)N=CC1=C(O)C(C(=O)c2ccccc2)CCC1=O (stereo not given),33.9,5.0
Cn1c(=O)c2[nH]c(-c3ccc(S(=O)(=O)O)cc3)nc2n(C)c1=O,97.5,72.0
CCOc1cc(/C=N/NC(=O)Cn2nc([N+](=O)[O-])cc2C)cc(Br)c1OCc1ccccc1F,31.8,2.7
O=C(Nc1ccon1)c1sc2ccccc2c1Cl,30.6,-11.0

# In another format: 29 of the compounds above.
smiles	RmlC RmlD mix	RmlC RmlD mix retest
CC(=O)c1cccc(NC(=O)c2cc(-c3ccc(F)cc3)on2)c1	30.6	-1.3
Cc1cc(NS(=O)(=O)c2ccc(NC(=O)c3oc4ccccc4c3C)cc2)no1	48.0	-9.9
CCc1ccc2[nH]c(=O)c(CN(Cc3ccccc3OC)C(=O)Nc3ccccc3OC)cc2c1	30.3	1.7
O=C(Nc1nncs1)c1cccc(S(=O)(=O)N2CCCCC2)c1	72.2	-2.3
N[C@@H](Cc1cc(I)c(Oc2cc(I)c(O)c(I)c2)c(I)c1)C(=O)O	46.0	1.0
O=C(NC1CCCC1)C1CCN(S(=O)(=O)c2cccc3cccnc23)CC1	42.8	-5.8
O=C(NC1=NCCS1)c1ccc(Br)s1	61.4	-4.2
C=CCOC(=O)C1=C(C)NC(SC)=C(C#N)C1c1cccs1 (stereo not given)	102.8	2.8
CCc1ccc(C2=CC(c3cc(Br)ccc3F)n3ncnc3N2)cc1 (stereo not given)	38.0	2.0
CC(=O)Oc1cc(C(C)C)c(OCCN(C)C)cc1C	44.3	2.9
COc1ccc(CN2CCN(C(=O)c3ccco3)CC2)cc1	37.0	-1.0
COc1ccccc1C(=O)Nc1ccc2oc(-c3ccc(F)cc3)nc2c1	47.3	30.1
COCCn1nnnc1C(c1cccs1)N1CCN(c2cc(C)ccc2C)CC1 (stereo not given)	135.2	2.2
COC(=O)c1cccc2nc3c(C(C)O)cccc3nc12 (stereo not given)	73.5	0.8
CCOc1cc2[nH]c(=S)n(Cc3ccc(C)o3)c(=O)c2cc1OCC	103.8	-3.9
COc1ccc(S(=O)(=O)CCC(=O)NCCc2ccc(Cl)cc2)cc1	115.2	1.9
CN(C)S(=O)(=O)N1CCN(S(=O)(=O)c2ccc3ccccc3c2)CC1	95.7	5.2
O=C(NCc1ccco1)c1scc2c1OCCO2	31.9	-7.0
CC(C)n1c(Sc2nccn2C)nc2c1c(=O)n(C)c(=O)n2C	101.8	-10.6
O=c1[nH]cnc2ccccc12	37.5	7.2
CCC(C)NC(=O)NC(=O)N(C1CCCCC1)S(C)(=O)=O (stereo not given)	82.4	1.2
C=CCNCC(=O)NN=C(c1ccccc1)c1ccccc1	110.2	-13.4
C#CCSc1nnc(-c2c[nH]c3ccccc23)n1C	99.0	4.7
CSc1nc(-c2ccccc2)nn1C(=O)c1ccc(C)cc1	43.2	-9.3
C=COCCNC(=O)C1CC(=O)N(c2ccc(C)cc2)C1 (stereo not given)	i	-13.7
O=C(CN1CCCCC1)N1c2ccccc2Sc2ccc(C(F)(F)F)cc21	48.3	-8.3
O=C(NCCNC(=O)C(F)(F)F)c1ccncc1	32.0	2.3
CN(C)CCNC(=O)c1cc2c(s1)-c1ccccc1OC2	160.6*	134.6*
COc1cccc(NC(=O)c2nnn(Cc3ccc(Br)cc3F)c2N)c1	46.5	-5.5

# New compounds follow:
SMILES,RmlC RmlD mix,RmlC RmlD mix retest
Nc1cc(-c2nc3ncccc3o2)ccc1Cl,44.5,5.8
CCCn1nc(C(=O)N2CC(=O)Nc3ccccc32)c2ccccc2c1=O,36.7,-14.7
COCCN1CCn2c(nc3cc(NC(=O)NC4CCCCC4)ccc32)C1,59.4*,53.0*
CC(C)(C)SCCNC(=O)COc1ccccc1,95.6,-0.5
c1ccc(-c2nnc(N3CCOCC3)nc2-c2ccccc2)cc1,34.0,-12.2
CCc1ccc(NC(=O)C(C)Nc2ccc(S(=O)(=O)NC(C)=O)cc2)cc1 (stereo not given),50.5,-9.0
Cc1ccc2c(c1)C1CN(C)CCC1N2C(=O)Nc1cccc(C(F)(F)F)c1 (stereo not given),38.8,8.6
CC(NC(=O)COc1ccccc1)C(=O)OCC(=O)c1cc2ccccc2o1 (stereo not given),69.3,6.3
COC(=O)C1=CNC=C(C(=O)OC)C1c1cccc(OC)c1,50.5*,123.5*
COc1ccc(N=CC2=C(Nc3ccc(OC)cc3)c3c(C)nn(-c4ccccn4)c3CC2)cc1,60.9*,nt
C/C(NCC(C)(C)CN(C)C)=C(/C#N)C(=O)NCc1ccccc1,84.2,1.0
CC1CN(S(=O)(=O)c2cccs2)CC(C)O1 (stereo not given),40.4,6.8
CCOc1ccc2oc(-c3ccccc3)c(C(=O)N3CCN(CCO)CC3)c2c1,95.6,16.2
Cc1ccc(S(=O)(=O)N2CCC(C(=O)N[C@@H](C)C(=O)Nc3ccc4c(c3)OCO4)CC2)cc1,i,-17.3
COc1ccccc1NC(=O)Cc1noc(CN(C)Cc2cccs2)n1,92.8,-3.7
Cc1ccc(NCc2cccnc2)cc1,37.3,-1.6
Nc1ncnc2oc(-c3ccco3)c(-c3ccco3)c12,36.5,12.6
O=C1OC(Nc2ccc(F)cc2F)c2ccccc21 (stereo not given),45.5,-10.7
COc1ccc(Nc2oc(-c3ccc(Cl)cc3)nc2C#N)cc1,58.2,-63.1
O=C(C(c1ccccc1)N1CCOCC1)N1CCOCC1 (stereo not given),41.3,-9.6
CCC1c2ccc(C)n2CCN1C(=O)Nc1ccccc1C(=O)OC (stereo not given),55.2,-8.3
Clc1ccc(C2=Nn3c(nnc3-c3cccnc3)SC2)s1,31.5,-4.4
COC(=O)NCC1(C)CC(NC(=O)OC)CC(C)(C)C1 (stereo not given),46.7,-4.5
CCC(C)NC(=O)C1CCCCN1S(=O)(=O)c1ccc(F)cc1 (stereo not given),31.1,-22.6
COC(=O)/C(=C/c1c[nH]c2ccccc12)[N+](=O)[O-],34.7,-5.6

# Additional structures
SMILES,RmlC RmlD mix,RmlC RmlD mix retest
CCn1c(N2CCN(C(=O)NC3CCCCC3)CC2)nc2ccccc21,93.2,-0.4
CCOC(=O)c1cccc(NC(=O)CN(c2ccc(C)cc2)S(=O)(=O)c2c(C)n[nH]c2C)c1,36.5,-1.0
Cc1nn(-c2ccccc2)c2c1C1(C(=O)N(C)c3ccccc31)C(C#N)=C(N)O2 (stereo not given),32.0,-8.2
N=C1C(c2nc3ccccc3c(=O)[nH]2)=C(O)CN1CCc1ccccc1,64.2,-62.0
O=C(O)Cc1c[nH]c2ccc(O)cc12,65.9,-5.8
Cc1ccc(CN2CC(C(=O)Nc3ccc4c(C)cc(=O)oc4c3)CC2=O)cc1 (stereo not given),30.3,31.1
O=C(Nc1ccccc1C(=O)N1CCOCC1)c1cccnc1,41.1,-8.4
CCC/C(=C1/C(=O)CC(C)(C)C(C(=O)OC)C1=O)N1CCCC1 (stereo not given),51.3,1.4
O=C(c1cccn2c(=O)c3ccccc3nc12)N1CCC2(CC1)OCCO2,32.5,19.7
Cc1nn(-c2ccccn2)c2nc(-c3cccs3)cc(C(=O)N3CCOCC3)c12,46.2,44.5
O=C(Nc1ccc(NC(=O)C2CC2)nc1)c1cccnc1,30.3,1.8
O=C1CN(C(=O)COC(=O)c2oc3ccccc3c2COc2ccccc2)c2ccccc2N1,71.9,-4.6
COc1ccc(-c2nc3cc(NC(=O)Cc4ccc(OC)c(OC)c4)ccc3o2)cc1,177.4,-22.3
CN1CCc2[nH]c3ccc(C(=O)NN)cc3c2C1,39.3,1.7
COc1ccc(-n2c(=O)c3c4c(sc3n3cnnc23)CC(C)CC4)cc1 (stereo not given),81.3,-3.4
O=C1C2CCCN2C(c2ccc(Cl)c(Cl)c2)N1c1ccccn1 (stereo not given),71.4,-13.0
c1ccc(CCNc2nnnn2-c2ccccc2)cc1,40.6,-5.7
CCOc1cccc2cc(-c3csc(NC(=O)CCC(=O)N4CCC(C)CC4)n3)c(=O)oc12,+,nt
O=C1/C(=C/c2ccc(N3CCOCC3)o2)SC(=Nc2ccccc2)N1CCc1c[nH]c2ccccc12,36.5,-5.8
CCOc1ccc(C(=O)Nc2ccc3c(c2)OCO3)cc1OCC,45.0,-4.3
O=C(Nc1cccc(-c2cn3cccnc3n2)c1)c1ccc2c(c1)OCO2,37.1,-14.6
O=C1c2cc(Cl)ccc2OC2(CCNCC2)C12CC(c1ccc(Cl)cc1)=NO2 (stereo not given),49.6,15.5
CCOc1ccc(-c2cc(C(=O)O)c3ccccc3n2)cc1,31.5*,45.6*
COc1cccc(OC)c1C(=O)Nc1nc2ccc(S(C)(=O)=O)cc2s1,73.7,-0.8
CN(C)c1ccc(NC(=O)c2cn(-c3ccccc3)nc2-c2cccs2)cc1,44.7,-3.3
CCCn1c(SCC(=O)Nc2ccccc2Oc2ccccc2)n[nH]c1=O,43.3,-15.2
O=C(CC(c1ccco1)C1CCCCC1=O)c1ccccc1 (stereo not given),36.2,8.4
CCCC(=O)Nc1ccc(OCC(=O)OC)cc1,42.8,-7.0
CC(=O)Oc1cc2c(C(=O)NCc3ccncc3)c(C)oc2c2ccccc12,43.5,-1.9

# Single records, from the list above:
# Profile of `CCOc1ccc(C(=O)Nc2ccc3c(c2)OCO3)cc1OCC` = RmlC RmlD mix: 45.0; RmlC RmlD mix retest: -4.3
# Profile of `O=C(CC(c1ccco1)C1CCCCC1=O)c1ccccc1` (stereo not given) = RmlC RmlD mix: 36.2; RmlC RmlD mix retest: 8.4

# Source: PubChem (PCMD)

# Some of the compounds tested. The share of hits here may be higher or lower than overall.
